Assay outcomes deposited in PubChem by National Center for Advancing Translational Sciences (NCATS).
VACV mCherry inh: inhibitors of vaccinia virus infection (mCherry reporter signal) | Vaccinia virus mCherry reporter infection, fluorescence; about a quarter of the inactives have no number | Potency, µM (titrated, usually from 36.5 µM), inactives show at the top dose activity change, negative = inhibition, actives largely listed as inhibitors | 310,000 tested, 0.63% active | AID 720579; active = well fitted inhibition curve with a large enough effect; inconclusive = small, poorly fitted or top-dose-only effect; inactive = no such curve, though single readings can be large or run the other way; tested in A549 cells; also: nearly all actives have a fitted effect of over 35% in size; inactives centre near -10
VACV Venus inh: vaccinia inhibition (Venus reporter) | Potency, µM (highest dose often 36.5 µM), for inactives: top-dose activity change, negative = inhibition, hits mostly inhibitors | Vaccinia virus Venus reporter expression, fluorescence | 330,000 tested, 0.46% active; active means well fitted inhibition curve with a large enough effect; inconclusive means small, poorly fitted or top-dose-only effect; inactive means no such curve, though single readings can be large or run the other way; tested in A549 cells; also: nearly all actives have a fitted effect of over 30% in size; inactives centre near -10
Numbers without * were called inactive; i = inactive; ? = inconclusive; . = not tested or not shown; & = joins results of further samples; [ ] = remark or other dose. % is scaled to controls: 0 for no effect and ±100 for the full control effect; potency is read from the fitted curve at half-maximal effect. Compounds as they come; 0.87% or so of the library scored in one or more.

Value order – VACV mCherry inh, VACV Venus inh
CC(=O)N1c2ccccc2C(=O)C1N1CCN(c2cccc(C)c2C)CC1 (stereo not given)
  -9%, -2%
CC1=C(C)CC2C(C1)C(=O)c1ccc(Br)cc1S2(=O)=O (stereo not given)
  ?, -10%
O=C(CSc1ncc(-c2ccccc2)[nH]1)Nc1ccc(F)cc1F
  -17%, -18%
CC(=O)c1ccc(-n2nnnc2SCC(=O)NC2CCCCC2)cc1
  -3%, 9%
Cn1c(=O)c2cc(C(=O)NC3CCCCCC3)sc2c2ccccc21
  ?, ?
COCC(C)n1c(C)cc(C(=O)COC(=O)CCc2nc3ccccc3c(=O)[nH]2)c1C (stereo not given)
  -17%, -12%
c1ccc(NN(Cc2ccccn2)c2ccccc2)cc1
  ?, -11%
CCOc1ccc(/C=C/C(=O)OCC(=O)NCCc2ccc(OCC)c(OCC)c2)cc1OC
  -11%, -11%
COc1ccc(CN2CCC2(C)C(=O)NCc2ccc3c(c2)OCO3)c2ccccc12 (stereo not given)
  ?, 4%
CC1(C(=O)NS(=O)(=O)c2ccccc2)CCN1C(=O)c1ccccc1CCc1ccccc1 (stereo not given)
  i, -6%
Cc1cccc(NC(=O)CSCC(=O)Nc2cc(Cl)ccc2N2CCOCC2)c1
  -25%, -15%
Cn1cc(C=O)c2nccnc21
  -15%, -15%
Cc1ccccc1NC(=O)c1ccc2c(c1)c(C)c(C)n2Cc1ccccc1
  -22%, -23%
COc1ccc(C(C)=O)cc1COC(=O)c1ccc(S(=O)(=O)N2CCOCC2)cc1
  -7%, -2%
CCn1nnc(-c2ccccc2NC(=O)C(F)(F)F)n1
  -4%, -8%
CC1Cc2cc(S(=O)(=O)NCc3ccccc3)ccc2N1C(=O)C1CCC1 (stereo not given)
  -9%&-4%, -5%&-11%
O=C1c2ccccc2NC(c2ccc(-c3cccc(Cl)c3)o2)N1O (stereo not given)
  ?, ?
COc1ccc(CNc2ccnc(-c3ccccc3C(F)(F)F)n2)c(OC)c1
  i, 0%
Brc1cccc(-c2nc3c4ccccc4ccn3c2Cc2ccsc2)c1
  i, 6%
CCOC(=O)C[C@H]1c2cc(F)ccc2S(=O)(=O)N1C1CCCCC1
  -8%&-2%, -12%&-8%
Clc1ccccc1-c1nc(N2CCNCC2)c2ccccc2n1
  -7%, -5%
CCOC(=O)Nc1ccc([N+](=O)[O-])cc1C
  i, 0%
COc1cccc(CNC(=O)[C@@H]2CCCN2C(=O)[C@@H]2CCCN2)c1
  -14%, -6%
O=Cc1c(Sc2ccccc2)nc2ccccn2c1=O
  ?, -23%
Cc1ccsc1-c1nc(CN2C[C@@H](C)O[C@@H](C)C2)c(C)o1
  -1%, -7%
COc1ccc(C2=NS(=O)(=O)N(C)C(C(=O)N3CCN(C)CC3)=C2)cc1
  i, -2%
CC1Cc2ccccc2N1CC(=O)NC(=O)NC1CCCC1 (stereo not given)
  i, -5%
Cc1cc(C)c2c(=O)[nH]c(SCC(=O)NCCc3ccccc3)nc2n1
  -14%, -13%
COc1ccc(CC(=O)NCCC2=CCCCC2)cc1
  0%, -23%
O=C(CNC(=O)c1ccc(Cl)cc1)OCC(=O)N1CCCC1
  -10%, -1%
CC1(C)CC(=O)C(/C=N/c2ccccn2)=C(O)C1
  -22%, -16%
CCOC(=O)C1=NN(c2ccc(C)cc2)CC1C(=O)OC (stereo not given)
  -3%, -9%
Cc1ccc(Cl)cc1NC(=O)COC(=O)Cn1cnc2c1c(=O)n(C)c(=O)n2C
  -6%, -24%
Cn1c(N)c(C(=O)Nc2c(Cl)cccc2Cl)sc1=S
  -25%, -11%
CCCC(=O)NC(=S)Nc1cccc(NC(=O)c2ccccc2)c1
  -12%, -13%
COc1ccccc1N1CC(C(=O)Nc2nc(C)cs2)CC1=O (stereo not given)
  -12%, 1%
Cc1c(Nc2c3ccccc3nc3ccccc23)c(=O)n(-c2ccccc2)n1C
  -15%, -6%
COc1ccc(N(C)C(=O)Nc2ccc3nsnc3c2)cc1
  i, -19%
CCn1c(SCc2ccc(F)cc2)nc2c(c1=O)SCC2
  -2%, -17%
O=C(NCCCCCCCCCNC(=O)C(F)(F)F)C(F)(F)F
  i, -12%

Exported with each value named: entries from further up
COc1cccc(CNC(=O)[C@@H]2CCCN2C(=O)[C@@H]2CCCN2)c1
  VACV mCherry inh: -14%
  VACV Venus inh: -6%

O=C(NCCCCCCCCCNC(=O)C(F)(F)F)C(F)(F)F
  VACV mCherry inh: i
  VACV Venus inh: -12%

CCn1c(SCc2ccc(F)cc2)nc2c(c1=O)SCC2
  VACV mCherry inh: -2%
  VACV Venus inh: -17%

Cc1ccc(Cl)cc1NC(=O)COC(=O)Cn1cnc2c1c(=O)n(C)c(=O)n2C
  VACV mCherry inh: -6%
  VACV Venus inh: -24%

(further entries)
Value order – VACV mCherry inh, VACV Venus inh
Cc1ccc(CNC(=O)c2cccc(Nc3nc4ccccc4n4nnnc34)c2)cc1
  6.3µM*, 7.9µM*
O=C(CCSCCC(=O)Nc1c(F)c(F)c(F)c(F)c1F)Nc1c(F)c(F)c(F)c(F)c1F
  -14%, -5%
CCCc1cc(C(=O)Nc2ccc(C)cc2)no1
  4%, 2%
Cc1ccc(Cc2c(C)nc3nc(SCC(=O)NCCCN4CCCCCC4)nn3c2C)cc1
  -15%, -18%
Cc1ccc(NC(=O)CCCC(=O)OC(C)C(=O)c2ccccc2)cc1 (stereo not given)
  -13%, -6%
COc1ccccc1Nc1nc(NCCO)nc(N)c1[N+](=O)[O-]
  i, -13%
CC(C)S(=O)(=O)C1=NSC2=NC(=O)/C(=C\c3ccc(-c4ccccc4)o3)C(=N)N21
  -13%, -5%
O=C(Nc1ccc(C(=O)Oc2ccccc2)c(O)c1)c1ccccc1
  -6%, -17%
COc1ccccc1/C=C1/C(=O)N(c2cc(C)cc(C)c2)C(c2cccc([N+](=O)[O-])c2)S1(=O)=O (stereo not given)
  1%, 0%
Cc1ccc(Cl)cc1-n1c(=O)cc(N2CCN(c3ccccc3)CC2)[nH]c1=O
  2%, -4%
COc1ccc(C(=O)OCC(=O)N2CCC(C)CC2)cc1S(=O)(=O)N1CCOCC1
  -13%, -15%
Cc1cc(C)n(C(=O)CNc2ccc(C)c(C)c2)n1
  -15%, -15%
O=C(Nc1ccc(N2CCN(C(=O)c3ccco3)CC2)cc1)c1cc(Br)ccc1Cl
  -29%, ?
CCCCC12CN3CCN(CC(C3)/C1=N\NC(=O)Nc1ccccc1)C2
  -28%, -18%
O=C(C1=NN[C@@H]2C(=O)N(c3ccccc3C(F)(F)F)C(=O)[C@H]12)c1ccc2ccccc2n1
  i, -10%
O=C(NC1CCCCC1)NC1CCN(C(=S)NCc2ccco2)CC1
  i, 0%
COc1ccc(-c2cn[nH]c2-c2ccc(OC)cc2O)cc1
  ?, -25%
CCc1ccc(C(=O)NNC(=O)C2CSC3(C)CCC(=O)N23)cc1 (stereo not given)
  -10%, -24%
O=C(O)Cn1c(=S)sc2ccccc21
  9%, 3%
O=C(CN(C(=O)CNC(=O)c1ccco1)c1ccc2c(c1)OCCO2)NC1CCCCC1
  i, -5%
O=C(NCCS(=O)(=O)N1CCCCCC1)c1ccccc1
  i, -6%
NCCSC1CC(=O)N(c2ccc(F)cc2)C1=O (stereo not given)
  -13%, -5%
O=C(NCCN1CCc2ccccc2C1)C1CCN(S(=O)(=O)N2CCCCC2)CC1
  -29%, -19%
COc1cc(N(C)C)ccc1/C=C/c1ccnc2ccccc12
  -28%, 47%[activator]
Cn1c2ccccc2c(=O)c2ccc(Cl)cc21
  i, -5%
CCOc1ccc(C(=O)Nc2cccc(NC(=O)c3ccc(C(C)(C)C)cc3)c2)cc1Br
  -6%, -14%
Cc1cccc(CNC(=O)Cn2ccc3cc(S(=O)(=O)N4CCCCCC4)ccc32)c1
  -19%, -19%
Cc1oc2c(C)c3oc(=O)c(CCC(=O)N4C[C@H]5C[C@@H](C4)c4cccc(=O)n4C5)c(C)c3cc2c1C
  -7%, -13%
CCOC(=O)c1cccc(NC(=O)Cn2ncc3c(=O)oc4ccccc4c32)c1
  -8%, 3%
CCOc1ccc(-c2cc(C(=O)N3CCC(C)CC3)c3ccccc3n2)cc1
  -5%, -9%
COc1ccc(N(C(=O)COc2ccc(F)cc2)S(=O)(=O)c2ccc(C)cc2)cc1
  i, -6%
O=C(CCc1nc(-c2ccccc2)no1)NCc1ccco1
  ., -5%
CN(C(=O)c1ccc2c(c1)N(Cc1cccc(Cl)c1)C(=O)c1ccccc1S2(=O)=O)C1CCCCC1
  -3%, -2%
Cc1cc(C)cc(C(=O)NC(CC(N)=O)c2ccc(NC3CCCCCCCCCCC3)c([N+](=O)[O-])c2)c1 (stereo not given)
  i, -3%
Fc1ccccc1CNCCC(Cc1ccccc1)c1ccc2c(c1)OCO2 (stereo not given)
  -25%, ?
O=C(Cn1nc(-c2ccc(Cl)cc2)ccc1=O)NCc1ccccc1Cl
  -11%, 1%
N/C(=N\OC(=O)Nc1ccc(Cl)cc1)c1ncc(C(F)(F)F)cc1Cl
  ., -16%
O=C(CCc1nnc(CCc2c[nH]c3ccccc23)o1)NC1CCC1
  i, -9%
CC(=O)N1CCN(C(=O)c2cccc(S(=O)(=O)Nc3c(C)n(C)n(-c4ccccc4)c3=O)c2)CC1
  i, -7%
COc1ccc(NC(=O)CN(C)CC(=O)Nc2ccc3c(c2)CCC3)cc1
  -2%, -18%
CC(OC(=O)c1ccc(NC(=O)CC#N)cc1)C(=O)NC(c1ccccc1)c1ccccc1 (stereo not given)
  -8%, 4%
N#Cc1c(-n2cccc2C=O)sc2c1CCCC2
  i, -10%
COc1cccc(/C=C/C(=O)c2ccc(NC3=NCCCS3)cc2)c1
  i, -5%
COc1ccccc1NC(=O)C(C)N(C)Cc1ccc(Cl)s1 (stereo not given)
  -8%, 0%
C=CCc1cccc(/C=N/NC(=O)C(C)Nc2cccc(C)c2)c1O (stereo not given)
  ?, -17%
COc1ccc2c(c1)c(=O)oc1cc(OC(C(=O)O)c3ccccc3)ccc12 (stereo not given)
  i, -17%
COc1ccccc1NC(=O)c1c(Br)cnn1C
  i, -8%
O=c1cc(-c2ccccc2)nc2n1Cc1ccccc1-2
  i, -13%
Cc1[nH]n(-c2ccccc2)c(=S)c1C=Nc1cccc([N+](=O)[O-])c1
  -28%, -21%
O=C(c1cccc([N+](=O)[O-])c1)N1CCN(c2cccc(Cl)c2)CC1
  i, -28%
CCOC(=O)[C@H]1[C@H]2COc3cc(OC)ccc3[C@@H]2N2C(=O)c3cc(C)ccc3NC(=O)[C@@]12C
  2%, -17%
CCOc1ccc(N(CC)C(=O)CCc2nc(-c3ccccc3F)no2)cc1
  -12%, -8%
CCN(CC)CCCn1c2c(c(SCC(=O)Nc3nc4ccccc4s3)nc1=O)CCC2
  ?, ?
Cc1ccc(C(=O)CSc2ccccn2)cc1
  -22%, -9%
CC1(C)C2CCC1(CS(=O)(=O)NC1CCCC1)C(=O)C2 (stereo not given)
  -22%, 0%
COc1ccc(Nc2c(-c3ccco3)nc3cccc(C)n23)cc1
  -11%, -8%
Cc1ccc(C(=O)NCCCNC(=O)c2ccc(C)nc2)cc1
  19%, -11%
C=CCN(c1ccccc1)S(=O)(=O)c1cccc(C(=O)NCC(c2ccc(OC)cc2)N2CCCCC2)c1 (stereo not given)
  ?, ?
Cc1nnc(SCCCn2c(N3CCN(c4ccccc4)CC3)nc3c2c(=O)[nH]c(=O)n3C)s1
  ., -19%
CC(C)CN(CCNC(=O)CN1C(=O)COc2ccc(S(=O)(=O)N3CCC(C)CC3)cc21)CC(C)C
  -18%, -4%

(continued)
Value order – VACV mCherry inh, VACV Venus inh
CC(C)[C@H](NC(=O)N1CCn2c1nc1ccccc12)C(=O)N[C@@H](C(=O)O)c1ccccc1
  7%, -1%
O=C(Cc1ccc(Cl)cc1)Nc1ccc(N2CCN(C(=O)c3ccco3)CC2)cc1
  -3%, -12%
COCCN1C(=O)c2oc3ccc(C)cc3c(=O)c2C1c1ccc(C(=O)OC)cc1 (stereo not given)
  -9%, -9%
COCCN1C(=O)/C(=C2/C(=O)N(CC(=O)Nc3ccccc3Cl)c3ccccc32)SC1=S
  -10%, -14%
CS(=O)(=O)NCCNc1cc(Cl)ccc1[N+](=O)[O-]
  i, -6%
CC(C)OCCCNC(=O)C1CC(=O)N(CCc2ccccc2)C1 (stereo not given)
  i, 4%
COc1cccc2nc3cc(C)c(C)cc3nc12
  ?, -13%
COc1ccc(N2CCN(CCCNC(=O)Nc3ccccc3Cl)CC2)cc1
  -5%, -1%
COc1cccc(C2=NN(C(=O)c3ccco3)C(O)(C(F)(F)F)C2)c1 (stereo not given)
  -5%, -13%
O=C(Nc1ccc(Cl)cc1)c1ccc2c(c1)S(=O)(=O)c1ccccc1C2=O
  i, -3%
CC(N1CCOC1=O)S(=O)(=O)c1ccccc1 (stereo not given)
  i, -6%
COc1ccccc1NS(=O)(=O)c1cccc(C(=O)NCC2(N3CCCCC3)CCCCC2)c1
  i, -28%
